Assay outcomes: PubChem BioAssay, several laboratories
Mtb betalactam = beta-lactam sensitization of Mtb H37Rv; inhibition, % at 25 µM; M. tuberculosis H37Rv growth with meropenem, percent inhibition; hits of this screen are not shown here; 0.27% of 330,000 active; AID 434955;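 active = about 74% or more and at least 40 points above the plate without the antibiotic, then above 30% in a dose series; inconclusive = first-round hits that could not be retested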;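 note: growth measured after seven days incubation then overnight dye step; 0% = bacteria only wells and 100% = bacteria with antibiotic; twin plates without the antibiotic show which effects depend on it; some results filed as inactive read as strong as hits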
Arbovirus inh = blocks arbovirus infection; AID 1251; arbovirus infection cell-based antiviral screen; 0.37% of 200,000 active; inhibition, % at 10 µM;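 active = inhibition from about 30%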;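 note: bluetongue infection of BSR cells; cell survival read as ATP light after 72 h; 0% = infected wells without compound and 100% = uninfected wells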
Mtb H37Rv = M. tuberculosis H37Rv growth inhibitors, H37Rv strain (AID 1626) | 0.95% of 220,000 active | M. tuberculosis H37Rv growth inhibition; higher % means a stronger effect | one-dose inhibition, % at 10 µM; IC50 in µM for titrated hits;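 active = confirmed in a dose series; inconclusive = inhibition above 80% but not taken into the dose series; inactive = below 80% or under 30% at every dose of the series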;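 note: bacteria incubated seven days before Alamar blue readout; 0% = bacteria only wells and 100% = bacteria with antibiotic wells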
YopH inh = YopH (Yersinia) phosphatase inhibition | fluorescence Ex485/Em525 | inhibition, %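 (about 10 µM by stock and volumes)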 | 0.16% of 140,000 active | AID 898;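 active = inhibition of 50% or more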;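 note: controls were vehicle for no effect and minimum signal wells for full effect; inactives centre near -20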
RecA splice inh = blocks M. tuberculosis RecA intein splicing | cell-free RecA intein splicing, fluorescence | 0.75% of 290,000 active | inhibition, %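 (about 9 µM by stock and volumes)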 | P9WHJ3 | AID 2221; in the data active = inhibition above about 30%; inconclusive = no clear call, values can overlap the other calls;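 note: 0% = vehicle wells and 100% = reference inhibitor control wells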
Target sequence (P9WHJ3 whole entry, looked up, canonical isoform): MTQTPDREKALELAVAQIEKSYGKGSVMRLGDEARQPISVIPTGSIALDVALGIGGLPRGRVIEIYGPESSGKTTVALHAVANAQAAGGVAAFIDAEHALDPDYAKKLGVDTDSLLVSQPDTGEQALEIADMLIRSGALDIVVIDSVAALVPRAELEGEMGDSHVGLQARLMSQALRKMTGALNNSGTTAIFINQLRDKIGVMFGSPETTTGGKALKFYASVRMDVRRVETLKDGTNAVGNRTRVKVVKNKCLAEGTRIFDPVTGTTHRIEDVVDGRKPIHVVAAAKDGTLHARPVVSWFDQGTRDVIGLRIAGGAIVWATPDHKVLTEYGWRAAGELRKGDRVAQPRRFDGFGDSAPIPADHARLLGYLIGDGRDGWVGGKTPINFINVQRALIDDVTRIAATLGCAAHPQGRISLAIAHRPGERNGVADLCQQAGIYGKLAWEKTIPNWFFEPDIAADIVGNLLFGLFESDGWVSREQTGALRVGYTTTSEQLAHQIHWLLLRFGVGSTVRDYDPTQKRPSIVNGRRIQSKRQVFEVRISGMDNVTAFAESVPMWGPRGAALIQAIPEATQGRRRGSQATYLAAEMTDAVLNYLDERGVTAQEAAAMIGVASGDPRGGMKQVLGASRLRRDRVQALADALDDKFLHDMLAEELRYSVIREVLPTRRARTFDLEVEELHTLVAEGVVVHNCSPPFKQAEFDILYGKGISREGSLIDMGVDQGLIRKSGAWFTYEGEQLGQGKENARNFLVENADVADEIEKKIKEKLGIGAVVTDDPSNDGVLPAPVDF
Arbovirus inh repeat = second read-out of Arbovirus inh, no call of its own (marks repeat the call); inhibition, %; measured here: 10K subset replicate screen; many hits read low in the repeat;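 first of two repeat runs on a subset; 0% = infected and 100% = uninfected wells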
Numbers without * were called inactive.

How did Cc1cccc2c(=O)c(C(=O)N3CCCCCC3)c[nH]c12 do in these assays?
Mtb betalactam: 90.8; Arbovirus inh: 1.1; Mtb H37Rv: -7.7%; YopH inh: -8.5; RecA splice inh: 2.1

How did O=C1c2ccccc2N2C(=O)c3ccccc3C2N1Cc1ccccc1 (configuration not stated) do in these assays?
Mtb betalactam: -4.3; Mtb H37Rv: 15.8%; RecA splice inh: 1.9

How did CCCSc1nc(N)c2c3c(sc2n1)CN(C)CC3 do in these assays?
Mtb betalactam: -7.2; Arbovirus inh: -1.6; YopH inh: -13.4; RecA splice inh: 2.5; Arbovirus inh repeat: 5.4

How did O=C(COC(=O)C1(c2ccc(F)cc2)CCCC1)N1CCc2ccccc21 do in these assays?
Mtb betalactam: 5.8; Arbovirus inh: 4.6; Mtb H37Rv: 2.5%; YopH inh: 1.6; RecA splice inh: -1.5

How did Cc1cc(Br)ccc1OCCCCNC(C)(C)C do in these assays?
Mtb betalactam: -5.4; Arbovirus inh: -24.1; Mtb H37Rv: 1.2%; YopH inh: -7.5; RecA splice inh: -0.9

What do the screens show for `C/C(=N\Nc1ccccc1)c1c(O)n(-c2ccccc2)c(=O)[nH]c1=O`?
Mtb betalactam: 89.2; Mtb H37Rv: 54.9%; RecA splice inh: -1.5

What do the screens show for `O=C(c1cc2cc(Cl)ccc2[nH]1)N1CCN(Cc2ccc3c(c2)OCO3)CC1`?
Mtb betalactam: 99.2; RecA splice inh: 13.2

What do the screens show for `CCCN1C(=O)/C(=C\C=C2/Sc3ccccc3N2CC)SC1=S`?
Arbovirus inh: -1.3; Mtb H37Rv: 2.9%; RecA splice inh: -1.5

How did Clc1ccc(-c2ccn[nH]2)cc1 do in these assays?
Mtb betalactam: 51.4; Arbovirus inh: 5.8; Mtb H37Rv: 58.5%; RecA splice inh: 1.2

What do the screens show for `COC(=O)Nc1ccc(S(=O)(=O)N2CCN(C)CC2)cc1`?
Mtb betalactam: -5.9; Arbovirus inh: 3.0; Mtb H37Rv: 1.1%; YopH inh: -51.3; RecA splice inh: -3.9

Results for O=C1NC2(CCCCC2)CO1 ?
Mtb betalactam: -1.3; RecA splice inh: -0.1

What do the screens show for `CNC(=S)NNC(=O)c1ccc(=O)n(Cc2cccc(C(F)(F)F)c2)c1`?
Mtb betalactam: -7.7; Arbovirus inh: 5.3; Mtb H37Rv: 1.1%; RecA splice inh: 6.6

Results for CC(C)NC(=O)COc1ccc(Cl)cc1Cl ?
Mtb betalactam: 1.5; Arbovirus inh: 0.6; Mtb H37Rv: 3.7%; YopH inh: -25.8; RecA splice inh: 0.2

How did N#Cc1ccc(C(=O)CSc2n[nH]c(=O)n2Cc2ccco2)cc1 do in these assays?
Mtb betalactam: -12.1; Mtb H37Rv: 1.1%; RecA splice inh: -3.3

What do the screens show for `O=C(NCc1ccccc1)C(c1ccc(F)cc1)N(Cc1ccco1)C(=O)c1ccccn1` (configuration not stated)?
Mtb betalactam: -5.4; Arbovirus inh: 2.8; Mtb H37Rv: -2.8%; YopH inh: -19.3

How did COc1ccccc1NC(=O)NNC(=O)COc1ccc2ccccc2c1 do in these assays?
Mtb betalactam: -0.8; RecA splice inh: 2.7

What do the screens show for `COC(=O)CCC(=O)N1CCCC(CO)(Cc2ccccc2)C1` (configuration not stated)?
Mtb betalactam: -11.7; Arbovirus inh: -0.7; Mtb H37Rv: -2.9%; RecA splice inh: 0.0

What do the screens show for `CCN(CC)c1ccc(/C=N/Nc2nc(C)cc(C)n2)cc1`?
Mtb betalactam: -3.0; Mtb H37Rv: -2.0%; RecA splice inh: -5.6

How did COc1ccc(NC(=O)CN2C(=O)CSC(C)C2=O)cc1 (configuration not stated) do in these assays?
Mtb betalactam: -3.0; Arbovirus inh: -1.7; Mtb H37Rv: 0.1%; RecA splice inh: -1.9

How did Cc1ccc(OCCSc2cc(C)nc(N)n2)cc1 do in these assays?
Mtb betalactam: 2.6; Arbovirus inh: 4.0; Mtb H37Rv: 11.3%; YopH inh: -24.6; RecA splice inh: 1.3; Arbovirus inh repeat: 9.1

What do the screens show for `COc1ccc(CCNc2nc(-c3cccnc3)cs2)cc1OC`?
Mtb betalactam: -5.6; Arbovirus inh: 5.1; Mtb H37Rv: -5.8%; YopH inh: 4.5; RecA splice inh: 0.1

What do the screens show for `O=C(NCCN1CCCCCC1)C1CCC(CNS(=O)(=O)c2cccc3cccnc23)CC1` (configuration not stated)?
Mtb betalactam: -0.8; Arbovirus inh: 2.3; Mtb H37Rv: 0.4%; YopH inh: -11.0; RecA splice inh: -0.2; Arbovirus inh repeat: -4.7

What do the screens show for `S=c1[nH]nc(COc2ccccc2)n1/N=C/c1ccc(Br)s1`?
Mtb betalactam: 6.9; Arbovirus inh: 11.3; YopH inh: -19.6; RecA splice inh: -1.4

How did COc1ccc(S(=O)(=O)N(CC(=O)NC2CC2)Cc2ccccc2)cc1 do in these assays?
Mtb betalactam: -2.9; RecA splice inh: -1.2

How did O=C(NC1CC1)C1=C[C@@H](c2ccc(C(F)(F)F)cc2)C[C@@H](OCCCCO)O1 do in these assays?
Mtb betalactam: -2.3; Mtb H37Rv: -5.5%; RecA splice inh: 5.6

How did CC(Oc1ccccc1F)C(=O)NC1CCS(=O)(=O)C1 (configuration not stated) do in these assays?
Mtb betalactam: inconclusive; RecA splice inh: 2.9

How did CCCC(=O)NNC(=O)c1c(O)c2ccccc2[nH]c1=O do in these assays?
Mtb betalactam: -1.6; Arbovirus inh: -3.9; Mtb H37Rv: -6.2%; RecA splice inh: 1.1

Results for CCCC(=O)C1=C(O)C(C(=O)OC)C(C)(C)CC1=NCCCCCC(=O)O (configuration not stated) ?
Mtb betalactam: -9.5; Mtb H37Rv: -0.1%; RecA splice inh: -0.6

How did O=C(NCCc1cccc(Cl)c1)c1ccc2c(c1)OCO2 do in these assays?
Mtb betalactam: -5.3; RecA splice inh: 2.2

Results for CCN(CC)S(=O)(=O)c1ccc(Cl)c(C(=O)Nc2cc(C)nn2-c2ccccc2C(F)(F)F)c1 ?
Mtb betalactam: 4.4; Arbovirus inh: 8.5; Mtb H37Rv: -2.2%; YopH inh: -29.3; RecA splice inh: 3.3

Results for Clc1cccc(Cl)c1Cn1cc(Br)cn1 ?
Mtb betalactam: 11.2; Arbovirus inh: -4.7; Mtb H37Rv: 3.8%; YopH inh: -6.7; RecA splice inh: 1.3

What do the screens show for `O=C(COC(=O)C1CCN(S(=O)(=O)c2cccs2)CC1)c1ccc2c(c1)OCCO2`?
Mtb betalactam: 4.0; Arbovirus inh: 3.9; Mtb H37Rv: -10.8%; YopH inh: -44.5; RecA splice inh: -0.1

Results for COC(=O)CN(CCc1ccccc1)S(=O)(=O)c1ccc(OC)c(OC)c1 ?
Mtb betalactam: -7.3; Arbovirus inh: -2.1; Mtb H37Rv: -3.3%; YopH inh: -12.1; RecA splice inh: 3.8

What do the screens show for `O=C(NC1CCS(=O)(=O)C1)c1ccccc1C(=O)c1ccccc1` (configuration not stated)?
Mtb betalactam: 0.7; Arbovirus inh: 4.8; Mtb H37Rv: -8.8%; YopH inh: -45.9; RecA splice inh: -0.5; Arbovirus inh repeat: 2.7

What do the screens show for `Cc1cc(NC(=O)Nc2ccccc2)n(C(C)(C)C)n1`?
Mtb betalactam: -4.0; RecA splice inh: 1.1

Results for Cc1cccnc1NC(=O)c1ccc2c(c1)OCO2 ?
Mtb betalactam: 4.0; RecA splice inh: -2.1

How did COCCn1c(SCC(=O)N2CC(C)OC(C)C2)nc2c([nH]c3ccccc32)c1=O (configuration not stated) do in these assays?
Mtb betalactam: 1.1; RecA splice inh: 0.8

Results for COc1ccccc1C(=O)NCCC(=O)NCc1cccs1 ?
Mtb betalactam: -4.8; RecA splice inh: 0.0

What do the screens show for `NC(=O)COC(=O)c1cccc(S(=O)(=O)N2CCN(c3ccc(F)cc3)CC2)c1`?
Mtb betalactam: 0.4; Arbovirus inh: 13.3; Mtb H37Rv: -9.3%; RecA splice inh: 1.3

How did Cc1sc2nc(N)sc2c1C do in these assays?
Mtb betalactam: 2.6; Arbovirus inh: 0.3; Mtb H37Rv: -0.9%; YopH inh: -40.0

Results for O=C(O[C@H]1[C@H](Oc2ccccc2COC(=O)C2(O)C=CCCC2=O)O[C@H](CO)[C@@H](O)[C@@H]1O)c1ccccc1 (some centres not stated) ?
Mtb betalactam: -5.2; Mtb H37Rv: -5.7%; RecA splice inh: 1.2

What do the screens show for `Cc1ccccc1S(=O)(=O)NCc1cccnc1`?
Mtb betalactam: 5.8; Arbovirus inh: 8.7; Mtb H37Rv: 0.2%; YopH inh: -12.9

What do the screens show for `Cc1[nH]c(=O)[nH]c(=O)c1S(=O)(=O)Nc1ccc(F)cc1F`?
Mtb betalactam: 8.0; RecA splice inh: -0.6

What do the screens show for `NC(=NCc1ccccc1)c1cccc([N+](=O)[O-])c1`?
Mtb betalactam: -6.2; RecA splice inh: -3.4

What do the screens show for `O=S(=O)(c1ccc(C2=CSC3=NCCN23)cc1)N1CCOCC1`?
Mtb betalactam: -9.8; Arbovirus inh: 1.1; Mtb H37Rv: -0.8%; YopH inh: -16.3; RecA splice inh: -3.0

As a short view, two of the compounds above.
How did COCCn1c(SCC(=O)N2CC(C)OC(C)C2)nc2c([nH]c3ccccc32)c1=O (configuration not stated) do in these assays?
Mtb betalactam: 1.1; RecA splice inh: 0.8

Results for COc1ccccc1C(=O)NCCC(=O)NCc1cccs1 ?
Mtb betalactam: -4.8; RecA splice inh: 0.0

Other results.
Results for COCCN(C(=O)c1ccc2ccccc2c1)c1c(N)n(Cc2ccccc2)c(=O)[nH]c1=O ?
Mtb betalactam: -3.7; Arbovirus inh: 3.0; Mtb H37Rv: 0.9%; RecA splice inh: 2.2

Results for O=C(NCc1ccc2c(c1)OCO2)C1CCN(S(=O)(=O)c2cccc3nsnc23)CC1 ?
Mtb betalactam: -0.5; Arbovirus inh: -2.9; YopH inh: -52.8; RecA splice inh: 1.0

What do the screens show for `CCOC(=O)c1ccc(Cl)c(NC(=O)c2cccnc2)c1`?
Mtb betalactam: -2.2; Arbovirus inh: -2.7; Mtb H37Rv: -4.9%; RecA splice inh: -0.3

Results for O=C1OCC(CO)(CO)N=C1NNc1ccccc1Cl ?
Mtb betalactam: 11.8; Arbovirus inh: -14.7; Mtb H37Rv: -2.4%; YopH inh: -17.3; RecA splice inh: -1.2

What do the screens show for `N#Cc1ccc(Oc2nc(C#N)cc(-c3ccccc3)n2)cc1`?
Mtb betalactam: 9.7; Arbovirus inh: 15.1; Mtb H37Rv: 9.6%; YopH inh: -26.5; RecA splice inh: 11.9

Results for COC(=O)c1ccc(NC(=S)Nc2ccc3ccccc3c2)cc1 ?
Mtb betalactam: 88.3; Arbovirus inh: -26.2; Mtb H37Rv: inconclusive; YopH inh: -46.0; RecA splice inh: 7.1

How did CN(C)c1ccc(C(=S)N2CCCCC2)cc1Br do in these assays?
Mtb betalactam: -0.7; Arbovirus inh: 2.0; Mtb H37Rv: 6.2%; RecA splice inh: 0.0

What do the screens show for `O=C1c2ccccc2OCOc2ccccc21`?
Mtb betalactam: -1.4; Arbovirus inh: -7.7; Mtb H37Rv: 4.0%; YopH inh: -21.4; RecA splice inh: 2.4

How did O=[N+]([O-])c1ccc2nc(-c3ccccc3[N+](=O)[O-])[nH]c2c1 do in these assays?
Mtb betalactam: -4.2; Arbovirus inh: -2.2; Mtb H37Rv: -12.4%

What do the screens show for `O=C(CC(NC(=O)c1ccccc1)c1ccccc1)Nc1cccc2ccccc12` (configuration not stated)?
Mtb betalactam: -3.1; Arbovirus inh: -17.4; Mtb H37Rv: 6.2%; YopH inh: -22.6; RecA splice inh: 2.2

How did CCCCOc1ccc(CSc2nc(C)[nH]c2[N+](=O)[O-])cc1[N+](=O)[O-] do in these assays?
Mtb betalactam: -0.1; Mtb H37Rv: 7.2%; RecA splice inh: 2.5

How did C=CC[N+](C)(C)CC(=O)OCc1ccccc1 do in these assays?
Mtb betalactam: -1.3; Arbovirus inh: 4.9; Mtb H37Rv: 1.8%; YopH inh: -9.1; RecA splice inh: -0.3

What do the screens show for `Cc1ccc(OCC(=O)N(C)CC(=O)N(CC(C)C)c2c(N)n(CC(C)C)c(=O)[nH]c2=O)c(C)c1`?
Mtb betalactam: 0.0; RecA splice inh: -0.1

What do the screens show for `O=C(OCc1ccccn1)c1ccc(COc2ccc3ccccc3c2)o1`?
Mtb betalactam: 88.6; Mtb H37Rv: 11.2%; RecA splice inh: 2.0

Results for Cc1cccc(NC(=O)CS(=O)(=O)c2cn(C)c3ccccc23)c1C ?
Mtb betalactam: 2.0; Arbovirus inh: 1.2; Mtb H37Rv: 7.1%; YopH inh: -17.0; RecA splice inh: 3.3; Arbovirus inh repeat: 0.8

This is a subset. The share of hits here may be higher or lower than overall.
